Screening results deposited in PubChem BioAssay by ICCB-Longwood Screening Facility, Harvard Medical School.
Ba CapD inh – CapD enzyme inhibition; z-score (no concentration beside the values); 140,000 tested, 0.23% active; purified CapD enzyme, fluorescence intensity read-out; active compounds read low; some hits fall short of the stated cut;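 active means z-score under -4 in either of two replicates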;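 further: stock transfer was 100 nL into about 40 µL; score is relative to mean and spread of the plate; one replicate is shown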
AID504770 – growth inhibitors of E. coli YBA685 in a screen for V. cholerae RctB (chromosome II replication) inhibitors; E. coli YBA685 rctB-dependent plasmid, OD600 growth, 3 h; active compounds read low; z-score (no concentration beside the values); 130,000 tested, 0.27% active; AID 504770;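 active means z-score under -2 on both plates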;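 further: wells of about 30 µL received 100 nL stock; score is relative to mean and SD of the test wells; the first replicate is given; strong numbers were not always called active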
Numbers without * were called inactive; . = not tested or not shown; & = joins results of further samples.

SMILES	Ba CapD inh	AID504770
O=C(O)c1ccc(CSc2nc(-c3ccccc3)cc(C(F)(F)F)n2)cc1	-0.61	0.9
O=C1c2ccccc2C(=O)C1c1ccc(OC(F)F)cc1	.	-0.05
COC(=O)c1ccc(NC(=O)C2CC2(c2cccc(C)c2)c2cccc(C)c2)cc1 (stereo not drawn)	-0.51	.
O=C(Nc1ccc2c(c1)COC2=O)c1ccc(F)cc1	0.095	-0.65
COC(=O)c1cc(OC(=O)c2ccc(Cl)cc2)n(C(C)(C)C)n1	.	0.15
c1cn(-c2ccc(-c3csnn3)cc2)cn1	-0.035	0.5
CCc1ccc(Nc2nc3ccccc3nc2NS(=O)(=O)c2ccc(C)cc2)cc1	0.81	-0.15
O=C1/C(=C/c2ccc(Br)cc2)C=C(c2ccccc2)N1c1cccnc1	-1.3	.
COc1ccc(-c2nc3ccccc3c(=O)n2NCc2cc(OC)c(OC)c(OC)c2)cc1OC	-0.44	.
NS(=O)(=O)c1ccc(CNC(=O)COC(=O)c2ccccn2)cc1	.	0.4
CC(C)CN(CC(C)C)S(=O)(=O)c1ccc(N)cc1	0.53	-0.2
Cc1ccc(NC(=O)CSC2=C(C#N)C(c3ccc([N+](=O)[O-])cc3)CC(=O)N2)cc1Cl (stereo not drawn)	-0.01	.
c1ccc(CNc2nc(-c3ccccc3)no2)cc1	0.66	-0.7
O=C(COC(=O)c1ccccn1)Nc1cccc(Cl)c1	0.51	-0.35
CCSc1cc(CC)c(C#N)c2nc3ccccc3n12	.	-0.1
COc1ccccc1NC(=O)c1sc2nc(C)nc(N3CCOCC3)c2c1C	9.4	.
NCCCc1ccc(Cl)cc1	.	-0.7
COc1ccc2c(=O)c(-c3ccc(F)cc3)coc2c1	-0.17	-0.15
Cc1sc2c(c1C)CN(Cc1ccco1)CN2C(=O)c1ccccc1	0.62	0.6
O=S(=O)(Cc1ccccc1)NCc1csc(-c2cccs2)n1	39	-0.55
Nc1ccc(Oc2ccc(F)cc2F)nc1	11	.
Cc1ccc2c(C)c(C(=O)N(Cc3ccco3)Cc3ccccc3Cl)oc2c1C	0.005	-0.9
O=C(O)CCc1cn(CCC(=O)O)nc1-c1ccc(Cl)cc1	.	-0.55
COC(=O)/C=C1/C(=O)N(C(C)=O)c2ccccc21	.	-1.1
O=C1CN(C(=O)COC(=O)/C=C/c2ccco2)c2ccccc2N1	.	-0.55
NCc1cn(-c2ccccc2)nc1-c1ccccc1	.	-1.1
O=C(NC1CCCC1)[C@H](CSCc1ccccc1)N1Cc2ccccc2C1=O	0.24	0.5
COc1cc(C2NCCc3c2[nH]c2ccccc32)ccc1OC(C)C (stereo not drawn)	0.03	-1.1
O=C(O)CSCC(=O)c1ccccc1	.	-0.4
CC1=C(C(=O)OCCOc2ccccc2)C(c2coc3ccc(Cl)cc3c2=O)C2=C(CCCC2=O)N1 (stereo not drawn)	0.55	.
CCSc1nnc(NC(=O)CSc2nc3c(c(=O)n2-c2ccccc2OC)SCC3)s1	0.51	.
CCOC(=O)c1ccoc1CSCc1ccc(C(=O)OC)o1	.	0.4
O=C(CSc1ncccn1)N1N=C(c2cccs2)CC1c1ccco1 (stereo not drawn)	.	0.7
CC(C)Oc1ccc(CN2CCCCC2COC(=O)N2CC=C(n3c(=O)[nH]c4ccccc43)CC2)cc1 (stereo not drawn)	-0.66	.
COc1ccccc1N1CCN(C(=O)c2sc3nc(C)nc(N4CCCCC4)c3c2C)CC1	-0.39	.
CCCCn1c(SCC(N)=O)nc2c1c(=O)n(C)c(=O)n2C	0.12	2.7
NS(=O)(=O)c1cc2c(cc1Cl)NC=NS2(=O)=O	1.3&-0.18	-0.05
CN1CCN(/C=N/c2nc3c(s2)CCCC3)CC1	.	-0.65
CSCCC(Nc1ncnc2ccc(Br)cc12)C(=O)O (stereo not drawn)	1.4	.
Cc1cc(NC(=O)C2C3C(=O)N(CCC(C)C)C(C(=O)NC(C)(C)C)C34C=CC2(C)O4)no1 (stereo not drawn)	.	0
C/C=C/C(=O)Nc1cccc(C(F)(F)F)c1	0.09	-0.35
Cc1ccc(C2CC(c3cccs3)=NN2C(=O)CSc2nnc(CNC(=O)COc3ccccc3)n2C)cc1 (stereo not drawn)	17	.
CCC(=O)N1CCc2cc(S(=O)(=O)NC(C(=O)Nc3ccc(OC)c(OC)c3)C(C)C)ccc21 (stereo not drawn)	-0.37	-1.6
Cc1cc(C)nc(Sc2nnc(-c3ccc(C)c(S(=O)(=O)N4CCOCC4)c3)c3ccccc23)n1	-1.2	.
COc1ccc(C(=O)/C=C/Nc2ccc(C(F)(F)F)cc2)cc1	1.4	0.8
CC1(C)C2CCC(COC(=O)NNC(=O)c3ccccc3-n3cccc3)C1C2 (stereo not drawn)	-0.62	.
COC(=O)c1cccc2c1-c1ccccc1C2=O	0.48	.
CCN1C(=O)c2ccccc2S(=O)c2ccc(C(=O)N3CCC(C)CC3)cc21 (stereo not drawn)	-0.7	0.65
CN(c1c2c(nn1C)CCCC2)S(=O)(=O)c1ccc(Cl)cc1	-0.12	.
Cc1sc2nc(C)n(NC(N)=O)c(=O)c2c1C	.	-0.15

Brought forward from above: three entries; new compounds follow.
SMILES	Ba CapD inh	AID504770
CCN1C(=O)c2ccccc2S(=O)c2ccc(C(=O)N3CCC(C)CC3)cc21 (stereo not drawn)	-0.7	0.65
CN(c1c2c(nn1C)CCCC2)S(=O)(=O)c1ccc(Cl)cc1	-0.12	.
Cc1sc2nc(C)n(NC(N)=O)c(=O)c2c1C	.	-0.15
COc1ccc(C2NCCc3sccc32)cc1 (stereo not drawn)	-0.44	.
COc1ccc2c(Cl)c(C(N)=O)sc2c1	0.45	0.2
Cc1onc(-c2ccccc2)c1C(=O)Nc1ccccc1N1CCOCC1	.	0.8
O=C(Nc1ccc2c(c1)OCO2)C1(c2ccc(Cl)cc2)CC1	.	-0.25
N#Cc1c(-c2ccccc2)noc1/C=C/Nc1cccc(C(F)(F)F)c1	0.55	.
O=C(/C=C/c1ccccc1)Nc1ccccc1N1CCN(c2ccccc2)CC1	.	3.4
C[C@@H](C(=O)NCCc1ccc(Cl)cc1)N1C(=O)C2CC=CCC2C1=O (stereo partly drawn)	.	-0.6
CC(=O)Oc1cccc(/C=C2\N=C(c3ccccc3Br)OC2=O)c1	1.6	0.25
C/C(=N\O)c1cc(Cl)sc1Cl	-0.24	-0.3
CC(C)(C)c1cc(CCOC(=O)CCSCCC(=O)OCCc2cc(C(C)(C)C)c(O)c(C(C)(C)C)c2)cc(C(C)(C)C)c1O	-0.51	.

Five records drawn at random from the list so far:
SMILES	Ba CapD inh	AID504770
CC(C)(C)c1cc(CCOC(=O)CCSCCC(=O)OCCc2cc(C(C)(C)C)c(O)c(C(C)(C)C)c2)cc(C(C)(C)C)c1O	-0.51	.
COc1ccc(C2NCCc3sccc32)cc1 (stereo not drawn)	-0.44	.
C[C@@H](C(=O)NCCc1ccc(Cl)cc1)N1C(=O)C2CC=CCC2C1=O (stereo partly drawn)	.	-0.6
O=C(/C=C/c1ccccc1)Nc1ccccc1N1CCN(c2ccccc2)CC1	.	3.4
CC(=O)Oc1cccc(/C=C2\N=C(c3ccccc3Br)OC2=O)c1	1.6	0.25

Carrying on:
SMILES	Ba CapD inh	AID504770
CCN(c1cccc(C)c1)C(C(=O)Nc1ccc2c(c1)OCCO2)c1ccccc1 (stereo not drawn)	-0.35	.
c1ccc2sc(NCC3CCCO3)nc2c1 (stereo not drawn)	-0.74	0.85
CN(C)S(=O)(=O)c1cccc(CSc2nc3ccccc3o2)c1	.	0.05
CN1CCC(N(C)C(=O)c2sc3cc(F)ccc3c2Cl)CC1	-0.88	1.4
CCc1c(C)c(C#N)c2nc3ccccc3n2c1N1CCN(Cc2cc(Cl)ccc2OC)CC1	-0.6	0.65
CCOC(=O)c1cc(-c2oc(=O)c(NC(=O)c3ccccc3)cc2C(C)=O)on1	-0.64	.
COC(=O)c1c(NC(=O)c2c(-c3ccccc3)noc2C)sc2c1CCC(C)C2 (stereo not drawn)	2.2	.
O=C1C=C(c2ccc(Br)cc2)OC(c2ccccc2)O1 (stereo not drawn)	0.13	0.8
CCOc1ccc(NC(=O)CSc2nc3n[nH]c(C)c3c(=N)n2-c2ccc(Cl)c(C)c2)cc1	1.7	.
CC(C)(C)C(=O)CC#N	.	-0.2
CCCCC1(C)OC(=O)C(=Cc2ccc(Br)o2)C(=O)O1 (stereo not drawn)	-4.4*	-0.35
CC1=NN(S(=O)(=O)c2ccccc2)C(O)(C(F)(F)F)C1 (stereo not drawn)	.	-1
CCC(C)C(NC(=O)c1ccccc1)c1nc2ccccc2[nH]1 (stereo not drawn)	0.22	-0.1
O=C(O)c1ccc(-c2cccc(Cl)c2)o1	.	-0.55
O=C(/C=C/c1ccco1)NC(=S)Nc1ccc2ccccc2c1	-2.7	-0.55
O=C(COC(=O)C1COc2ccccc2O1)Nc1ccc(S(=O)(=O)N2CCCCC2)cc1 (stereo not drawn)	.	-0.25
CCOc1ccccc1C(=O)NC1CCN(Cc2nnnn2C2CCCC2)CC1	.	2.2
Cc1ccc(NC(=O)C2CCC(CNC(=O)c3ccc(=O)[nH]c3)CC2)cc1 (stereo not drawn)	-0.43	0.15
CC(C)(C)NC(=O)Cn1c(-c2nonc2N)nc2ccccc21	-0.025	-1.1
CC1(C)CC(NC(=O)CC(c2ccc(F)cc2)c2ccco2)CCO1 (stereo not drawn)	0.14	-0.8

Reformatted: entries from further up
SMILES,Ba CapD inh,AID504770
CC(C)(C)NC(=O)Cn1c(-c2nonc2N)nc2ccccc21,-0.025,-1.1
CC1(C)CC(NC(=O)CC(c2ccc(F)cc2)c2ccco2)CCO1 (stereo not drawn),0.14,-0.8

(more compounds)
SMILES	Ba CapD inh	AID504770
NC(=O)CSc1nc2ccccc2c(=O)n1Cc1ccco1	.	-0.3
CN1CCCN(C(=O)C23CC4CC(C)(CC(C)(C4)C2)C3)CC1	-1	1.6
CN(Cc1ccccc1)S(=O)(=O)c1ncn[nH]1	-0.77	-0.8
O=C(Nc1cccc(C(F)(F)F)c1)c1ccc2cccnc2n1	-0.21	.
COC(=O)CNS(=O)(=O)Nc1ccc(-c2nc3ccc(C)cc3s2)cc1	42	-0.1
Cc1cc(N2C(=O)NC(=O)/C(=C\c3ccc(OCC(=O)O)cc3)C2=O)ccc1Br	-0.28	.
CCCN(CCC)S(=O)(=O)c1ccc(C(=O)Oc2c(C)cccc2OC)cc1	0.04	2
CCCCc1nc2ccccc2c(=O)n1NC(=O)c1c(O)c2ccccc2n(CC)c1=O	0.75	.
Cc1ccccc1N1CCN(C(=O)OCCCc2ccccn2)CC1	-0.49	.
c1ccc(CCNc2nc(-c3cccnc3)cs2)cc1	0.54	0.45

Single records (already shown). Order of screens: Ba CapD inh | AID504770
`CN1CCCN(C(=O)C23CC4CC(C)(CC(C)(C4)C2)C3)CC1` across the screens: -1 | 1.6
`CCCCc1nc2ccccc2c(=O)n1NC(=O)c1c(O)c2ccccc2n(CC)c1=O` across the screens: 0.75 | .
`NC(=O)CSc1nc2ccccc2c(=O)n1Cc1ccco1` across the screens: . | -0.3
`Cc1ccccc1N1CCN(C(=O)OCCCc2ccccn2)CC1` across the screens: -0.49 | .

The listing continues:
SMILES	Ba CapD inh	AID504770
COc1ccc(/C=C2\C=C(c3ccccc3)N(c3ccc(I)cc3)C2=O)cc1Br	1.1	.
Nc1nc(NCc2cccc(Br)c2)nn1-c1ccccc1	0.55	-0.25
Cc1ccc(C(=O)OC2CC(n3ccc(NC(=O)c4ccccc4)nc3=O)OC2CO)cc1 (stereo not drawn)	0.35	1.2
Cn1c(SCC(=O)c2ccc(CNC(=O)C(C)(C)C)s2)nnc1C1CC1	.	-1.3
CC(C)N(Cc1ccc(N(C)C)cc1)C(=S)Nc1ccc(Cl)c(Cl)c1	0.06	.
Cc1c[n+](CC(=O)c2ccccc2)c(C)cn1	.	-0.55
Cc1ccc2onc(CC(=O)NCCC3=CCCCC3)c2c1	-0.56	-1
CCOC(=O)N1CCC(NC(=O)c2ccc3c(c2)N(CC)CCS3)CC1	12	0.45
CCCCCC(=O)Nc1cc(-c2nc3cc(C)cc(C)c3o2)ccc1C	1.7	-0.25
CCc1c(C)c2c(C)[nH]nc2oc1=O	5.1	0.5
COc1ccc(C23CC4CC(CC(C4)C2)C3)cc1	0.35	-0.1
Cc1nc(N)sc1-c1csc(Nc2cccc(Cl)c2)n1	-0.28	2.4
CN(C)c1ccc(C2N(C(=O)c3ccccc3)CCN2C(=O)c2ccccc2)cc1	-0.12	.
CC1(C)CC(=O)C2=C(C1)c1c(ccc3ncccc13)NC2c1cccc(Br)c1 (stereo not drawn)	9.4	.
Cc1sc2ncnc(N3CCN(C)CC3)c2c1-c1ccccc1	0.34	-0.1
CCC(C)NC(=O)c1ccc2c(c1)N(Cc1ccc(C)cc1)CCS2 (stereo not drawn)	-0.24	0.35
COc1ccc(/C=N/NC(=O)CC#N)cc1	-1.2	.
CC1=NN(c2ccccc2)C(=O)C1C (stereo not drawn)	0.95	-0.75
CCOc1ccc(NC(=O)c2ccc(NCC(=O)N3CCCCCC3)cc2)cc1	-0.42	-0.3
Cc1ccc(S(=O)(=O)N(CC(O)CN(CC(C)C)CC(C)C)c2ccccc2)cc1 (stereo not drawn)	0.62	.
O=c1cc(O)c2cccc3c4ccccc4n1c23	9.7	-0.8
CC(C)(C)C1CCc2nc3ccc(S(=O)(=O)N4CCC(C(=O)O)CC4)cc3c(C(=O)O)c2C1 (stereo not drawn)	-0.55	-0.65
O=C(CCc1ccccc1)NC1CCCCC1	-0.12	-0.75
Fc1cccc(Nc2nnc(SCCN3CCCCC3)s2)c1	.	-0.7
Cc1nnc(NC(C)(C)CCl)s1	-0.69	0.15
O=S(=O)(NCC(c1cccnc1)N1CCOCC1)c1ccccc1 (stereo not drawn)	-1	-1.1
COC(=O)c1scc(S(=O)(=O)C(C)C)c1N/N=C(\C#N)C(=O)c1ccccc1	-2.5	.
OC(C#CCCN1CCCCC1)(c1ccccc1)c1ccccc1	0.005	0.95
COC(=O)c1ccc(N2CCC(C)CC2)c(N)c1	-0.015	0
CCOC(=O)c1c(N)sc2c1CCN(Cc1ccccc1)C2	17	1.4

The list is partial; the hit share may differ from the screen's.
